HSD17B inh: HSD17B dehydrogenase inhibition; Q99714; recombinant HSD17B10, NADH fluorescence kinetic; many of its hits are not listed in these tables; Potency, µM (doses to about 57.1 µM), inactives show at the top dose activity change, negative = inhibition, most hits filed as inhibitors; 7.6% of 75,000 active; AID 893; active means well fitted inhibition curve with a large enough effect; inconclusive means small, poorly fitted or top-dose-only effect; inactive means no such curve, though single readings can be large or run the other way;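 further: the protocol describes HADH2 (HSD17B10) and not the HSD17B4 of the title; nearly all actives have a fitted effect of over 70% in size; most hits overshoot -100% by far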
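Enzyme plus compound, 15 min room temperature; substrate mix added (NAD+ 1 mM, beta-hydroxybutyryl-CoA 90 uM final); plates read kinetically for NADH fluorescence. HADH2 was His-tagged, E. coli-derived, 20 nM.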
* = called active by the depositor; ? = inconclusive; [ ] = dose if it differs, or a comment. On the % scale 0 is the no-effect control and ±100 the full control effect; potency means the concentration at half of the fitted maximal effect. Some of the compounds tested. The share of hits here may be higher or lower than overall.

canonical_smiles	HSD17B inh
COC(=O)c1ccc(C(NC(=O)OCc2ccccc2)/C(F)=C/[C@@H](C)C(=O)NCc2cc(F)cc(F)c2)cc1 (stereo partly drawn)	24%
O=C1CC(c2ccco2)Cc2nc(Nc3nc(-c4ccccc4)c4ccccc4n3)ncc21 (stereo not drawn)	13µM*
CC(C)CC(OC(=O)c1ccco1)C(=O)NC1CCCCC1 (stereo not drawn)	5%
c1ccc2c(c1)[nH]c1c(N3CCOCC3)ncnc12	?
COC(=O)c1cc(NC(=O)C2CC=CCC2C(=O)O)cc(C(=O)OC)c1 (stereo not drawn)	2%
CCC(=O)Nc1ccc(Oc2ccc3c(c2)C(=O)NC3=O)cc1	-18%
CN(C)c1nc(Nc2ccc(Cl)cc2)nc(OCC#N)n1	-16%
CN1CCC(OC(=O)COc2ccc(C(C)(C)C)cc2)CC1	11%
CN(C)c1cccc(C(=O)OCC(=O)NCc2ccco2)c1	19%
Cc1cccc(C(=O)O)c1NC(=O)c1ccc(F)cc1	13%
Cc1cnc(NC(=O)C2CCCO2)s1 (stereo not drawn)	4%
Nc1ccc2c(c1)CCC2=O	-18%
COc1cc(OC)cc(-c2nc3cc(C)ccc3o2)c1	32µM*
O=C(Nc1ccc(F)cc1)N1CCN(C/C=C/c2ccccc2)CC1	-18%
COC(=O)C1CCN(C(=O)c2sc3nc(-c4ccccc4)cn3c2C)CC1	5%
Cc1nc2ccccc2c2nc3ccccc3n12	32µM*
CCOC(=O)C1=C(N)N2C(=O)C(C)SC2=C(C(=O)OCC)C1c1ccccc1 (stereo not drawn)	-9%
O=C(COC(=O)c1cccs1)NCCN1C(=O)CSC1=O	6%
COc1ccccc1N1CCN(C(=O)C2CCN(S(=O)(=O)c3ccccc3)CC2)CC1	3%
N#Cc1c2n(c3c(=O)n(Cc4ccc(Cl)cc4)cnc13)CCCCC2	-1%
CCc1ccccc1NC1=NCC(=O)N1Cc1ccccc1	8%
CCOc1ccccc1NC(=O)CN(c1cc(C)cc(C)c1)S(=O)(=O)c1c(C)noc1C	-19%
CC(=O)OC[C@H]1O[C@@H](n2ccc(=O)[nH]c2=S)C(OC(C)=O)C1OC(C)=O (stereo partly drawn)	0%
O=C(OCCNc1ncc(C(F)(F)F)cc1Cl)c1ccc(S(=O)(=O)N2CCOCC2)cc1	7%
Cc1ccc(S(=O)(=O)N2CCN(C(=O)C3COc4ccccc4O3)CC2)cc1C (stereo not drawn)	-10%
O=C(c1ccc(Br)o1)N1CCN(Cc2ccc3c(c2)OCO3)CC1	7%
CS(=O)(=O)N1CCN(c2ccccc2NC(=O)CSc2ccc(Cl)cc2)CC1	-5%
CCc1nnc2c3cnn(-c4ccc(C)c(C)c4)c3ncn12	4%
COCCn1cc(C(=O)NCCCN2CCC(C)CC2)c2c3ccccc3n(C)c2c1=O	25µM*
NCCCCCc1nnc(SCc2cccc(Cl)c2)o1	7%
COc1ccc(S(=O)(=O)NCC(c2cccnc2)N2CCN(C)CC2)cc1C (stereo not drawn)	-3%
CC(C(=O)Nc1cccnc1)N1C(=O)c2ccccc2C1=O (stereo not drawn)	4%
COc1ccc(NC(C)=O)c2nc(C)c(C)nc12	7%
O=C(NCc1ccco1)Nc1ccccc1Cl	8%
CCOC(=O)c1c(-c2cccs2)csc1NC(=O)CN1CC(C)OC(C)C1 (stereo not drawn)	-9%
CN(C)C(=O)c1ccc(-c2nccc(N(C)Cc3ccco3)n2)cc1	-1%
COc1cc(OC)cc(-c2nc3nc(C)c(CCC(=O)O)c(C)n3n2)c1	-5%
CCCCN(C)CCCNC(=O)CS(=O)Cc1nc(-c2ccc(OC)c(OC)c2)oc1C (stereo not drawn)	?
C/C=C/c1ccc(OCCSc2nc(C)cc(=O)[nH]2)c(OC)c1	3%
NC(=O)CSc1cn(CCNC(=O)c2cccs2)c2ccccc12	-3%
CN(C)c1ccc(CNn2cnnc2SCc2ccc(F)cc2)cc1	-4%
Cn1cc(CN2CCN(c3ccccc3)CC2)c2ccccc21	10%
O=C(O)[C@@H]1CCCN[C@H]1C(=O)O	-7%
Cc1ccc(N2C(=O)c3ccccc3C2O)nc1 (stereo not drawn)	2%
O=C(CCc1ccccc1)Nc1cc(Cl)ccc1O	-9%
CCc1ccccc1NC(=O)c1cnc2n(c1=O)CCS2	5%
CC(=O)OC[C@@H]1O[C@H](CCO/N=C(\C)CCN2CCCCc3nc(C)c(C)cc32)C=C[C@@H]1OC(C)=O	3%[11.4 µM]
c1ccc(Sc2nc(N3CCCCC3)nc(N3CCCCC3)n2)nc1	1%
O=C(O)CCC(=O)N(Cc1cccnc1)Cc1cccc(F)c1	-5%
COC(=O)[C@@]1(Cc2ccc(F)cc2)[C@H]2c3cc(C(=O)N(C)C)n(CCSCCO)c3C[C@H]2CN1C(=O)c1ccccc1	7%
COCCn1c(=O)c(-c2ccccc2)nc2cncnc21	?
CCc1cc(Br)ccc1N1C(=O)C2CC=CCC2C1=O (stereo not drawn)	4%
CCCC(NC(=O)CNC(=O)C(C)(C)C)C(=O)O (stereo not drawn)	9%
COC(=O)Cc1c(C)nc2nc(-c3ccc(OC)cc3)[nH]n2c1=O	32µM*
CC(C)=CC(=O)OCC(=O)Nc1ccc(F)cc1Cl	-7%
O=C(Cn1[nH]c(=O)c2ccccc2c1=O)Nc1ccc2c(c1)CCC2	6%
c1coc(CNc2c3c(nc4ncnn24)CCCC3)c1	-14%
CCCNS(=O)(=O)c1ccc(CCC(=O)N2CCC(C)CC2)cc1	-4%
COc1ccccc1CNC(=O)C1CCCN1S(=O)(=O)c1cccc2cccnc12 (stereo not drawn)	-1%
Cc1ccc2c(c1)N(CC(=O)N1CCc3ccccc3C1)C(=O)CO2	-6%

Further compounds:
canonical_smiles	HSD17B inh
COCCn1c(C)cc(C(=O)CSc2nnc3ccccn23)c1C	0%
O=C1C2CC=C(Cl)CC2C(=O)N1CCc1ccccc1 (stereo not drawn)	-29%
COc1ccc(N(CC(=O)Nc2cccc(SC)c2)S(C)(=O)=O)cc1	-3%
CCOC(=O)N1CCN(CC(O)COCC2=CCC3CC2C3(C)C)CC1 (stereo not drawn)	6%
CC(=O)c1cccc(NS(=O)(=O)c2cccc(C(=O)O)c2)c1	8%
O=C(CS(=O)(=O)c1cn(Cc2cccc(F)c2)c2ccccc12)N1CCCCC1	2%
CCC(=O)Nc1ccc(S(=O)(=O)N2CCc3ccccc3C2)cc1	-8%
COC(=O)C/C=C\[C@@H](C)[C@@H](/C=N\OC[C@@H](C)[C@H](OCc1ccccc1)C(C)C)OC	0%[11.4 µM]
NC(=O)Cc1c[nH]c2cccc(O)c12	5%
O=C(O)COc1ccc2occ(C(=O)c3ccccc3)c2c1	1%
Cc1ccc(-n2nc3c([n+]2[O-])CCc2c-3no[n+]2[O-])cc1	4%
Cc1cccc(N2CCN(C(=O)c3cc4c(=O)[nH]c5ccccc5c4n3C)CC2)c1C	-24%
CC1(C)N=C2C(=[N+]1[O-])CCC/C2=N\O	16%
Cc1cnc(CNc2ncncc2-c2c(C)noc2C)cn1	-1%
O=C(COC(=O)C1=COCCO1)NCCCc1ccccc1	5%
Cc1nc2ccccc2n1CC(=O)NCc1ccccc1	4%
O=S(=O)(Cc1ccccc1)N1CCCCCC1	2%
CCc1cccc(NC(=O)NC2CCCCC2)c1	1%
Cc1ccc(CCN2CC(C(=O)NCCN3CCCCCC3)CC2=O)cc1 (stereo not drawn)	1%
Clc1ccc2c(NCCNC3CCCCC3)ccnc2c1	-9%[11.4 µM]
COc1cccc(NC(=O)CCN2CCN(c3ccccc3F)CC2)c1	7%
Nc1nnc(C(=O)c2ccccc2N)s1	?
CCOC(=O)CCCNC(=O)CCNC(=O)c1ccc(OC)cc1	1%
O=c1c(F)cn(C2CCCO2)c(=O)n1Cc1ccccc1F (stereo not drawn)	1%

Some of these compounds in order of molar mass, high to low:
canonical_smiles	HSD17B inh
COc1cccc(NC(=O)CCN2CCN(c3ccccc3F)CC2)c1	7%
CCOC(=O)CCCNC(=O)CCNC(=O)c1ccc(OC)cc1	1%
Cc1nc2ccccc2n1CC(=O)NCc1ccccc1	4%
Nc1nnc(C(=O)c2ccccc2N)s1	?

Later entries
canonical_smiles	HSD17B inh
CCN1CC2CCCC3(C1)C(=O)NC1(CCCCC1)N=C23 (stereo not drawn)	-2%
COc1ccc(-c2nc(C#N)c(NCc3ccccc3Cl)o2)cc1OC	25µM*
CCCSc1nnc(-c2cccc(S(=O)(=O)N(C)C)c2)n1-c1cc(OC)ccc1OC	5%
CCOC(=O)CN(C(=O)CSc1nnc(-c2ccc(OC)c(OC)c2)o1)c1ccc(F)cc1	-3%
COc1ccc(CN(C(=O)c2ccco2)c2ccc(C)cc2)cc1OC	-25%
CCN(CC)S(=O)(=O)c1ccc2c(c1)c(=O)c(C(=O)N1CCOCC1)cn2C	-10%
CCS(=O)(=O)N1CCCC(C(=O)NCCN(C)Cc2ccccc2)C1 (stereo not drawn)	2%
CCC12CN3CC(CC)(CN(C1)C3c1ccccc1Cl)C2O (stereo not drawn)	10%
Cc1cc(C)n(Cc2ccccc2F)c(=O)c1C#N	-11%
COc1cc2c(cc1OC)C(C(=O)NCC1COc3ccccc3O1)C(c1cccnc1)N(C)C2=O (stereo not drawn)	1%
COC(=O)C1=C(C)NC(C)=C(C(=O)OC)C1C(=O)OCCN1C(=O)c2ccccc2C1=O	40%[activator]
CC1=C(C(=O)OC2CCCC2)C(c2ccc(C)o2)C2=C(CC(c3cccs3)CC2=O)N1 (stereo not drawn)	25µM*
Cc1cc(NC(=O)Nc2cccc(C(F)(F)F)c2)no1	9%
CCNC(=O)NC(=O)C(C)Oc1ccc(C(=O)OC)cc1 (stereo not drawn)	2%
C/C=C/c1ccc(OCCCn2cncn2)c(OC)c1	3%
COCCNC(=O)C(c1ccco1)N(C(=O)Cn1nnc2ccccc21)c1cc(C)ccc1C (stereo not drawn)	2%
CCOc1ccc(C2C(C#N)=C(N)SC(N)=C2C#N)c(OCC)c1	32µM*
Cc1ccc(S(=O)(=O)N2CCN(C(=O)CSc3nc4ccccc4c(=O)[nH]3)CC2)c(C)c1	0%
O=C(O)CSC1=NCCN1	8%[11.4 µM]
CCC(=O)Nc1cc(-c2nnc(OC)c3ccccc23)ccc1N1CCOCC1	6%
CC(C)(C)NC(=O)CSc1nnc(Cc2ccc3c(c2)OCO3)n1C1CCCCC1	9%
CN1C(=O)c2ccccc2C(C(=O)O)C1c1cn(C)c2ccccc12 (stereo not drawn)	-10%
COCCOC(=O)C1=C(C)N(Cc2ccccc2)C(=O)NC1c1cccc(OC)c1OC (stereo not drawn)	-1%
COC(=O)c1cc(OC)c(OC)cc1NC(=O)c1c(-c2ccccc2)noc1C	-2%

Next section (4 carried over from the part before).
canonical_smiles	HSD17B inh
CC(C)(C)NC(=O)CSc1nnc(Cc2ccc3c(c2)OCO3)n1C1CCCCC1	9%
CN1C(=O)c2ccccc2C(C(=O)O)C1c1cn(C)c2ccccc12 (stereo not drawn)	-10%
COCCOC(=O)C1=C(C)N(Cc2ccccc2)C(=O)NC1c1cccc(OC)c1OC (stereo not drawn)	-1%
COC(=O)c1cc(OC)c(OC)cc1NC(=O)c1c(-c2ccccc2)noc1C	-2%
O=C1CN(C(=O)CSc2nncn2-c2ccccc2)c2ccccc2N1	15%
COC(=O)CSc1nnc(CNC(=O)c2cccs2)n1-c1cccc(C)c1	1%
O=S(=O)(NC1CCCC1)c1ccc(S(=O)(=O)N2CCCN(Cc3ccccc3)C2)cc1	-1%
CCCOc1ccc(-c2nc(C#N)c(N3CCN(C)CC3)o2)cc1	32µM*
CCc1c(C)nc(N2CCN(Cc3ccccc3)CC2)[nH]c1=O	1%
CCC(C)NC(=O)C1(C)CCC(=O)N1CCc1ccc(OC)c(OC)c1 (stereo not drawn)	2%
N#Cc1c(N)c(C(=O)c2ccccc2)n2c1CCCC2	8%
COc1cc(C)c(S(=O)(=O)Nc2ccccc2F)cc1C	-4%
CSc1nc(-c2ccco2)nn1C(=O)c1ccc(C)cc1	-10%
CC(C)OC(=O)CN1C(=O)c2ccccc2C1=O	8%
O=C(CN1CCN(C(=O)c2ccccc2)CC1)Nc1ncc(Br)cc1Br	0%
O=C(O)c1cc(S(=O)(=O)Nc2ccc(O)cc2)ccc1Cl	0%
CN(C)c1ccc(C(C(=O)NC(C)(C)C)N(C(=O)c2csnn2)C2CC2)cc1 (stereo not drawn)	-14%
O=C(NCCO)c1cc2ccccc2c(=O)s1	-10%
CCOc1ccc(C(=O)NCCN(C)C)cc1	0%
CCOC(=O)N1CCC(N(CCOC)C(=O)Nc2ccc(Cl)cc2)CC1	8%
O=C(CCn1cnc2ccccc2c1=O)Nc1nc2c(s1)CCCC2	-2%
COc1ccc(OC)c(NC(=O)C2CC(=O)n3ncnc3N2)c1 (stereo not drawn)	-1%
O=C(O)c1ccc(COc2cccc(CO)c2)cc1	0%
O=C(Oc1ccccc1)N1CCC[C@@]2(CCN(c3ccccn3)C2)C1	25µM*
CCN(CC)S(=O)(=O)c1cccc(C(=O)Nc2nncs2)c1	0%
CCCCCCSC1=C(C#N)C(c2ccc(C)o2)CC(=O)N1 (stereo not drawn)	?

Screens deposited in PubChem by National Center for Advancing Translational Sciences (NCATS).
